# GIV-Gai inh: inhibitors of GIV peptide binding to Galpha-i3, primary screen, biochemical, fluorescence polarization, FITC-GIV GBA peptide, rat Galphai3. 210,000 tested, 0.42% active. 90 min; active compounds read low; scaled: aluminum fluoride 0%, vehicle 100%. percent of control (FP), % (concentration not given with the values). Guanine nucleotide-binding protein G(i) subunit alpha-3 (Rattus norvegicus), P08753;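 active = replicate mean at 85% of control or lower, very high polarization wells dropped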;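 also: wells of about 15 µL received 100 nL stock; the first replicate is given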
# Target sequence (P08753 whole entry, looked up): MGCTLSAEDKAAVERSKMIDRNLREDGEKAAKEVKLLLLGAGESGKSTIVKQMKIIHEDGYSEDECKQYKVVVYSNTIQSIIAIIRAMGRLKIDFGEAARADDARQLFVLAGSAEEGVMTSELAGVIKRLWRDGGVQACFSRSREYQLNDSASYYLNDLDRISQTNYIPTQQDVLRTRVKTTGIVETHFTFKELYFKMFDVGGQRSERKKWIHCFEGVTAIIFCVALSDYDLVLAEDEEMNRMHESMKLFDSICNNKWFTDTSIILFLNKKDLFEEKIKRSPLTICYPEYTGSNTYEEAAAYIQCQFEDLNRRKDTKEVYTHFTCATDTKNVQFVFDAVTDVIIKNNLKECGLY
# Starred values were filed as active, the others as inactive. A portion of the library, so the mix of outcomes need not match the whole.
# Start of the data: the first 4 entries as a preview:
SMILES,GIV-Gai inh
O=C(CSc1nc2ccccc2n1S(=O)(=O)c1ccccc1)NCCc1ccccc1,111
Cc1nn(-c2nc3ccccc3o2)c2c1C(c1ccc(F)cc1F)CC(=O)N2 (configuration not stated),107
Cc1ccc(N2C(=O)CSC2c2ccc(OC(F)F)cc2)cc1 (configuration not stated),118
O=S(=O)(c1ccc(Br)cc1)N1CCn2cccc2C1c1ccccc1 (configuration not stated),101

# The list itself (from the top)
SMILES,GIV-Gai inh
O=C(CSc1nc2ccccc2n1S(=O)(=O)c1ccccc1)NCCc1ccccc1,111
Cc1nn(-c2nc3ccccc3o2)c2c1C(c1ccc(F)cc1F)CC(=O)N2 (configuration not stated),107
Cc1ccc(N2C(=O)CSC2c2ccc(OC(F)F)cc2)cc1 (configuration not stated),118
O=S(=O)(c1ccc(Br)cc1)N1CCn2cccc2C1c1ccccc1 (configuration not stated),101
COc1cccc(C2C(C#N)=C(N)Oc3n[nH]c(C)c32)c1OCc1ccc(Br)cc1 (configuration not stated),101
C=CCOc1cccc(C2Nc3ccc(Cl)cc3[C@H]3OCCC[C@@H]23)c1 (some centres not stated),99
COc1ccc(N2CCN(S(=O)(=O)c3ccc(F)c(C(=O)Nc4cc(C)ccc4OC)c3)CC2)cc1,106
COC(=O)c1c(C)oc2ccc(N(C(C)=O)S(=O)(=O)c3ccc(Cl)c([N+](=O)[O-])c3)cc12,116
CCCC(=O)Nc1cc(Cl)ccc1OCc1cc(=O)n2cc(C)sc2n1,113
CCCN1C(=O)c2ccccc2Sc2cc(-c3noc(-c4ccncc4)n3)ccc21,98
Cc1nc(SCC2=C(C(=O)OC(C)C)C(c3ccccc3I)C(C#N)=C(N)O2)c(C#N)c(C)c1C (configuration not stated),115
COc1ccc(OC)c(-n2c(CNC(=O)c3ccccc3OC)nnc2SCC(=O)N2CCc3ccccc32)c1,108
CCC(Oc1ccccc1)C(=O)Nc1cc(Cl)ccc1OCc1cc(=O)n2oc(C)cc2n1 (configuration not stated),105
COc1ccc(/C=C2\C=C(c3ccccc3)N(c3cccc(Cl)c3Cl)C2=O)cc1Br,115
CNC(=O)C1CCCN(c2nc3ncn(CC(=O)NCCC4=CCCCC4)c(=O)c3s2)C1 (configuration not stated),101
O=C1COc2ccc(S(=O)(=O)NC3CCCC3)cc2N1Cc1noc(C2CC2)n1,102
c1ccc(-n2c(SCc3cccc4ccccc34)nnc2-c2ccco2)cc1,105
Cn1c(SCC(=O)N2CCc3ccccc32)nnc1-c1cc2ccccc2o1,95
CCOc1ccccc1N1C(=O)C2C(c3ccc(F)cc3)OC3(C(=O)c4ccccc4C3=O)C2C1=O (configuration not stated),99
C#CCOc1ccc(C2Nc3ccc(CC)cc3[C@H]3OCC[C@@H]23)cc1 (some centres not stated),100
CC1=C(C(=O)OCCc2ccccc2)C(c2ccc(Cl)c(Cl)c2)CC(=O)N1 (configuration not stated),119
COc1ccc(C2(O)C[N+]3=C(CCCCC3)N2c2ccc(C)cc2)cc1 (configuration not stated),109
O=C(C1CCN(c2nc3nc[nH]c(=O)c3s2)CC1)N1CCN(C2CCCCC2)CC1,95
COc1ccc(C2Nc3cccc4cccc(c34)N2)cc1OC,118
CCOC(=O)C1=C(N)n2c(s/c(=C/c3cccs3)c2=O)=C(C(=O)OCC)C1c1cccs1 (configuration not stated),114

# The closing 5 compounds of the section above are carried over, then new ones follow:
SMILES,GIV-Gai inh
CC1=C(C(=O)OCCc2ccccc2)C(c2ccc(Cl)c(Cl)c2)CC(=O)N1 (configuration not stated),119
COc1ccc(C2(O)C[N+]3=C(CCCCC3)N2c2ccc(C)cc2)cc1 (configuration not stated),109
O=C(C1CCN(c2nc3nc[nH]c(=O)c3s2)CC1)N1CCN(C2CCCCC2)CC1,95
COc1ccc(C2Nc3cccc4cccc(c34)N2)cc1OC,118
CCOC(=O)C1=C(N)n2c(s/c(=C/c3cccs3)c2=O)=C(C(=O)OCC)C1c1cccs1 (configuration not stated),114
COc1ccc(COC(=O)C2=C(C)NC3=C(C(=O)CC(c4cccs4)C3)C2c2ccccc2F)cc1 (configuration not stated),113
CCOc1cc(C2C(C#N)=C(N)Oc3n[nH]c(-c4ccc5c(c4)OCO5)c32)cc(Br)c1O (configuration not stated),113
COc1ccc(-c2nc(C)c3c(n2)N(CC2COCCO2)C(=O)C3)cc1 (configuration not stated),100
CC(C)NC(=O)CCn1c(=O)c2ccccc2n2c(SCc3ccccc3Cl)nnc12,105
COc1ccc(-c2nc3ccc(C(=O)c4ccccc4)cc3nc2-c2ccc(OC)cc2)cc1,118
COc1cc(C(=O)N2CCN=C2N2CCCC2)cc(OC)c1OC,102
O=C(NCCCc1ccccc1)c1ccc(Oc2nccnc2N2CCCCC2)cc1,110
COc1ccc(C2SCc3cc(C)c(C)cc3CS2)cc1OC,117
Cc1nn(-c2ccc(C(=O)NCC3CCCO3)cc2)c2c1C(=O)CC(C)(C)C2 (configuration not stated),98
Cc1cc(C)cc(-n2ccn3c(SCC(=O)c4cc(C)c(C)cc4C)nnc3c2=O)c1,103
CC(C)c1csc(-c2ccc(S(=O)(=O)NCCN3CCCCC3C)s2)n1 (configuration not stated),105
CCc1ccc2c(c1)[C@H]1OCC[C@H]1C(c1cc(Cl)c(OC)c(OC)c1)N2 (some centres not stated),100
COc1ccc(-c2nnc(-c3ccccc3)o2)cc1S(=O)(=O)N1CCc2ccccc2C1,106
COc1c(Cl)cc(Cl)cc1C(C1C(=O)N(c2ccccc2)N=C1C)C1C(=O)N(c2ccccc2)N=C1C (configuration not stated),102
C/C(=N\NC(=O)C1C(c2ccccc2)C(C(=O)N2CCOCC2)C1c1ccccc1)c1ccc(Br)cc1 (configuration not stated),114
CC1(C)CC(=O)C2=C(C1)c1c(ccc3ccccc13)NC2c1ccc(-c2ccc(Cl)c(C(=O)O)c2)o1 (configuration not stated),102
CCc1ccc(NC(c2cc(Cl)cc(Cl)c2OC)P2(=O)OCC(C)(C)CO2)cc1 (configuration not stated),104
Cc1ccc(C(=O)C[n+]2cc(-c3ccc(C)cc3)n3c2CCCCC3)cc1,111
COc1ccc(-n2cccc2/C=C2/NC(=O)NC2=O)cc1,108
COc1ccc(CCN2C(=O)/C(=C/c3c(NCCO)nc4ccccn4c3=O)SC2=S)cc1OC,143
COc1ccc(NC(=O)c2ccc3c(=O)n(-c4ccc(OC)c(OC)c4)c(=S)[nH]c3c2)cc1OC,108
COCCN1CCc2nc(SCc3cccc(Cl)c3)[nH]c(=O)c2C1,98
O=C(CCC(=O)N1CCCN(c2nc3cccnc3s2)CC1)NCCCN1CCCCC1,100
Cc1nc2ncnn2c(Sc2ccc(NS(=O)(=O)c3ccc(Br)cc3)cc2)c1C,105
O=S(=O)(c1ccc2nc(N3CCc4ccccc43)ccc2c1)N1CCCC1,106

# Other records follow.
SMILES,GIV-Gai inh
CCOC(=O)C1(C)/C(=N\Nc2ccc(C)cc2)C(=O)C(=O)N1c1ccccc1 (configuration not stated),113
CC(=O)N1CCCc2cc(S(=O)(=O)N3CCCC(C(=O)N4CCN(c5ccccn5)CC4)C3)ccc21 (configuration not stated),102
O=C(Nc1cccnc1)C1CCN(S(=O)(=O)c2ccc(-c3noc(C4CC4)n3)cc2)CC1,105
CCOC(=O)CSc1nc2c(c(-c3ccc(C)o3)c1C#N)CCCC2,109
CCOC(=O)c1cc(-c2ccc(/C=C3\C(=O)N(c4ccc(S(N)(=O)=O)cc4)N=C3C(F)(F)F)o2)ccc1Cl,103
O=C(NCC1CC1)C1CCN(c2cncnc2N2CCOCC2)CC1,102
Cc1cccc(NC(=O)Nc2nnc(CC(=O)NCc3ccccc3)s2)c1C,107
CCCC(=O)N(c1ccc2oc(C)c(C(C)=O)c2c1)S(=O)(=O)c1cccc([N+](=O)[O-])c1,106
CCCNC(=O)c1ccc(N2CCC3(CC2)OCCO3)c(NC(=O)c2cc3ccccc3oc2=O)c1,100
COC(OC)C12c3ccccc3C(c3ccccc31)C1C(=O)N(c3ccc(C(C)=O)cc3)C(=O)C12 (configuration not stated),111
N#CC1=C(N)Oc2n[nH]c(-c3ccncc3)c2C1c1cc(Br)ccc1OC(=O)N1CCOCC1 (configuration not stated),119
Cc1ccnc(N2CCC(C(=O)NCc3cccc(Cl)c3)CC2)n1,98
CN1C(=O)C(C)(C)c2cc(S(=O)(=O)NCc3ccc(Br)cc3)ccc21,105
O=C(Nc1ccccc1F)c1nc(N2CCCCC2)c2oc3ccccc3c2n1,110
Cc1ccc(-c2cnc3ccccc3n2)c(C)c1,103
Cn1c(=O)c2c(nc(SCc3nc(N)nc(N4CCOCC4)n3)n2C)n(C)c1=O,117
Cc1ccc(N2C(=O)CSC23C(=O)N(CN2CCN(c4ccccc4F)CC2)c2ccccc23)cc1Cl (configuration not stated),107
CCN(CC)CCNC(=O)c1sc2ncnc(N3CCN(c4ccccn4)CC3)c2c1C,104
Cc1cc(C2C(C#N)=C(N)N(c3ccc(Br)cc3)C3=C2C(=O)CCC3)c(C)s1 (configuration not stated),101
Nc1cccc(C(=O)N2N=C(C(F)(F)F)CC2(O)c2ccc(F)cc2)c1 (configuration not stated),107
CCN(CC)C(=O)CSc1nc2c(sc(=S)n2Cc2ccco2)c(=O)n1-c1ccccc1,117
CCn1c(=O)n(CC(=O)NCC2CCCO2)c(=O)c2ccccc21 (configuration not stated),108
COCCNC(=O)Cn1c(=O)c(=O)n(Cc2ccncc2)c2ncccc21,102
CC(=O)Nc1nc(-c2ccc(C(C)(C)C)cc2)nc2c1c(=O)oc1ccccc12,113
CC(C)c1ccc(C2=NN(c3ccccc3)C3(SC(c4ccccc4)=NN3c3ccccc3)c3ccccc32)cc1 (configuration not stated),104

# Two consecutive entries already listed, quoted:
SMILES,GIV-Gai inh
COCCNC(=O)Cn1c(=O)c(=O)n(Cc2ccncc2)c2ncccc21,102
CC(=O)Nc1nc(-c2ccc(C(C)(C)C)cc2)nc2c1c(=O)oc1ccccc12,113

# (next part)
SMILES,GIV-Gai inh
CCc1onc(C)c1C1CCCN1Cc1ccc(N(C)C)cc1 (configuration not stated),108
CCC1(C)COC2(OC1)C(=O)Nc1ccccc12 (configuration not stated),116
Cc1nc(N2CCN(C)CC2)c2c(C)c(C(=O)Nc3ccc4c(c3)OCCO4)sc2n1,94
c1ccc(-c2nc3c(c(N4CCCCC4)n2)C2(CCCC2)Cc2ccccc2-3)cc1,104
CCCN(CCC)S(=O)(=O)c1ccc2c(c1)N(Cc1noc(C)n1)C(=O)CO2,104
Cc1ccccc1NC(=O)c1sc(=S)n(-c2ccccc2C)c1N,107
Cc1nc(-c2cc(S(=O)(=O)NCc3ccc(F)cc3F)c(C)s2)cs1,103
CCN1CCN(C(=O)c2cc(C)n(CCN3CCCC3)c2C)CC1,105
O=C(NC1CCCCC1)c1n[nH]c2c1CCCC2,115
Cc1cc(C)cc(NS(=O)(=O)c2cc(-c3nc(C)c(C)s3)sc2C)c1,103
Cn1nc(-c2nc(-c3ccccc3)no2)c2c1CCN(S(=O)(=O)c1ccc(C(C)(C)C)cc1)C2,100
O=C(CN1C(=O)/C(=C2\SC(=S)N(C3CCS(=O)(=O)C3)C2=O)c2ccccc21)Nc1cccc(Cl)c1 (configuration not stated),106
COc1ccccc1N1CCN(c2ncnc3sc(C(=O)N4CCC(C)CC4)c(C)c23)CC1,100
O=C(Nc1ccccc1)C1Oc2ccccc2NC1=O (configuration not stated),100
Cc1ccccc1CNC(=O)C1(C)CCCN(S(=O)(=O)c2c(C)noc2C)C1 (configuration not stated),102
O=C(NCCc1cccs1)C1CCN(c2nc3nc[nH]c(=O)c3s2)CC1,94
COc1ccc(-n2c(=S)[nH]c3cc(C(=O)NCc4cccc(Cl)c4)ccc3c2=O)c(OC)c1,103
Cc1cccc(C)c1-n1nnnc1C(C)(C)Nc1ccc2c(c1)OCCO2,106
COC(=O)CNC(=O)N1CCCC1c1cc(C)no1 (configuration not stated),96
CC1CN(S(C)(=O)=O)c2cc(Cl)ccc2O1 (configuration not stated),103
CN(C)S(=O)(=O)N1CCC(c2ccncc2)CC1,101
Cc1cc(N2C(=O)C(N3C(=O)c4c(Cl)c(Cl)c(Cl)c(Cl)c4C3=O)C2c2cccc(Br)c2)ccc1Br (configuration not stated),113
CCCC1SC2=NC(c3ccccc3)=C(C(=O)OCC)C(c3c(OC)ccc4ccccc34)N2C1=O (configuration not stated),108
O=C(c1cn(-c2cccc(F)c2)nn1)N1CCCCC1,102
CNC(=O)c1cc2cc3ccc(Cl)cc3nc2o1,121
Cc1nc(-c2csc(S(=O)(=O)N3CCN(c4ccc(Cl)cc4)CC3)c2)sc1C,102
Cc1cc2c(cc1S(=O)(=O)N1CCC(C(=O)N3CCCCC3)CC1)OCC(=O)N2,99
CC(=O)c1c(C)oc2ccc(N(C(=O)c3ccc(C)cc3)S(=O)(=O)c3ccccc3)cc12,120
COc1cccc(C(=O)N2c3ccccc3CCc3ccccc32)c1,119
CC1CCN(C(=O)CN2C(=O)C3CCCN3C(=O)c3ccc(F)cc32)CC1 (configuration not stated),102

# Individual results from the list.
# CCc1onc(C)c1C1CCCN1Cc1ccc(N(C)C)cc1 (configuration not stated) @ GIV-Gai inh = 108
# CCC1(C)COC2(OC1)C(=O)Nc1ccccc12 (configuration not stated) @ GIV-Gai inh = 116
# CC1CCN(C(=O)CN2C(=O)C3CCCN3C(=O)c3ccc(F)cc32)CC1 (configuration not stated) @ GIV-Gai inh = 102
# COc1cccc(C(=O)N2c3ccccc3CCc3ccccc32)c1 @ GIV-Gai inh = 119

# Source: PubChem BioAssay
